Source: PubChem BioAssay (Broad Institute)
Vaccinia stage – Vaccinia orthopox stage-specific inhibition; Vaccinia-infected cells, mCherry/Venus stage reporter fluorescence; stronger effect = lower value; some inactives read as strong as hits; activity change (mCherry), % (no concentration beside the values); 0.01% of 89,000 active;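 active = mCherry past -33% and 40 or more points under the early reporter, replicates agreeing; inconclusive = past -33% without that gap or agreement; tested in A549 cells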;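 also: scaled between vehicle wells and reference inhibitor wells; 23 nL library stock went into each well; one replicate is shown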
Vaccinia stage Venus – also measured in Vaccinia stage; calls as there; activity change (Venus), %; measured here: Venus reporter, other viral stage;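 negative = less Venus signal; first of two replicates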
* hit, by the source's call; u = inconclusive; x = no result given. Only part of the results is shown. The share of hits here may be higher or lower than overall.

A first look, 5 compounds:
SMILES	Vaccinia stage	Vaccinia stage Venus
C[C@H](CO)N1C[C@H](C)[C@@H](CN(C)S(=O)(=O)c2ccc(Cl)cc2)OCCCC[C@H](C)Oc2ccc(NS(=O)(=O)c3ccccc3)cc2C1=O	u	x
O=C(c1cnccn1)N1CC(=O)N2[C@H](C1)[C@@H](c1ccc(C#CCc3ccccc3)cc1)[C@@H]2CO	15	-9
C[C@H]1CN([C@@H](C)CO)C(=O)Cc2cc(NC(=O)Nc3ccc(C(F)(F)F)cc3)ccc2O[C@@H]1CN(C)S(=O)(=O)c1ccccc1	3	-1
C[C@@H]1CN([C@H](C)CO)C(=O)Cc2cc(NC(=O)Cc3cn(C)c4ccccc34)ccc2O[C@@H]1CN(C)C(=O)Nc1ccccc1	11	2
C[C@@H]1CN([C@H](C)CO)C(=O)c2cc(C#Cc3ccccc3F)cnc2O[C@H]1CN(C)C(=O)Cc1cccnc1	-19	-21

All compounds of this part, repeating the preview:
SMILES	Vaccinia stage	Vaccinia stage Venus
C[C@H](CO)N1C[C@H](C)[C@@H](CN(C)S(=O)(=O)c2ccc(Cl)cc2)OCCCC[C@H](C)Oc2ccc(NS(=O)(=O)c3ccccc3)cc2C1=O	u	x
O=C(c1cnccn1)N1CC(=O)N2[C@H](C1)[C@@H](c1ccc(C#CCc3ccccc3)cc1)[C@@H]2CO	15	-9
C[C@H]1CN([C@@H](C)CO)C(=O)Cc2cc(NC(=O)Nc3ccc(C(F)(F)F)cc3)ccc2O[C@@H]1CN(C)S(=O)(=O)c1ccccc1	3	-1
C[C@@H]1CN([C@H](C)CO)C(=O)Cc2cc(NC(=O)Cc3cn(C)c4ccccc34)ccc2O[C@@H]1CN(C)C(=O)Nc1ccccc1	11	2
C[C@@H]1CN([C@H](C)CO)C(=O)c2cc(C#Cc3ccccc3F)cnc2O[C@H]1CN(C)C(=O)Cc1cccnc1	-19	-21
COc1ccc(NC(=O)N[C@@H]2CC[C@H](CCNC(=O)c3cc(Cl)cc(Cl)c3)O[C@H]2CO)cc1	-2	7
CCc1cnc(N2[C@H](C#N)[C@H](c3ccc(-c4cccc(F)c4)cc3)[C@@H]2CO)s1	-28	-12
C[C@@H]1CN([C@@H](C)CO)C(=O)c2cc(NS(C)(=O)=O)ccc2O[C@H]1CN(C)S(C)(=O)=O	-1	-1
O=C(C[C@@H]1CC[C@@H]2[C@H](COC[C@@H](O)CN2C(=O)c2ccccc2F)O1)N1CCCCC1	20	12
N#C[C@H]1[C@@H](c2ccccc2-c2cccc(F)c2)[C@@H](CO)N1C(=O)NC1CCCC1	-17	-9
C[C@@H]1CN([C@H](C)CO)C(=O)c2cc(NC(=O)c3ccncc3)ccc2O[C@@H](C)CCCCO[C@H]1CN(C)C	-2	1
Cc1ccc(S(=O)(=O)N2[C@@H]3CNC[C@H]2C3c2ccc(-c3ccc(C#N)cc3)cc2)cc1 (some centres undefined)	-7	-1
C/C=C/c1ccc2c(c1)O[C@H](CN(C)S(=O)(=O)c1ccc(F)cc1)[C@H](C)CN([C@@H](C)CO)S2(=O)=O	u	x
Cc1noc(C)c1S(=O)(=O)Nc1ccc2c(c1)C(=O)N([C@@H](C)CO)C[C@@H](C)[C@H](CN(C)S(=O)(=O)c1ccccc1)OCCCC[C@H](C)O2	-19	-11
C[C@H](CO)N1C[C@H](C)[C@H](CN(C)C(=O)Nc2cccc3ccccc23)Oc2ncc(-c3cccc(C(F)(F)F)c3)cc2C1=O	u	x

Among those listed so far, 3 contain a cyano group.
SMILES	Vaccinia stage	Vaccinia stage Venus
CCc1cnc(N2[C@H](C#N)[C@H](c3ccc(-c4cccc(F)c4)cc3)[C@@H]2CO)s1	-28	-12
N#C[C@H]1[C@@H](c2ccccc2-c2cccc(F)c2)[C@@H](CO)N1C(=O)NC1CCCC1	-17	-9
Cc1ccc(S(=O)(=O)N2[C@@H]3CNC[C@H]2C3c2ccc(-c3ccc(C#N)cc3)cc2)cc1 (some centres undefined)	-7	-1

Remaining list, next part.
SMILES	Vaccinia stage	Vaccinia stage Venus
CN(C)c1ccc2c(c1)[C@H]1C[C@@H](CC(=O)NCc3ccc4c(c3)OCO4)O[C@@H](CO)[C@H]1O2	-19	1
C[C@@H]1CN([C@@H](C)CO)C(=O)c2cc(-c3ccc(C#N)cc3)cnc2O[C@@H]1CN(C)CC1CCOCC1	8	5
O=C(Nc1ccccc1F)N[C@H]1C=C[C@@H](CC(=O)N2CCCCC2)O[C@H]1CO	-11	2
CC(=O)NC[C@@H]1[C@@H](c2ccc(-c3cccnc3)cc2)[C@@H](CO)N1C(=O)C1CC1	13	15
C[C@H]1CCCCO[C@H](CN(C)C(=O)CCCN(C)C)[C@@H](C)CN([C@@H](C)CO)C(=O)c2cc(NC(=O)C3CCCCC3)ccc2O1	6	1
COc1cccc(C(=O)N2C[C@H]3[C@@H](c4ccccc42)[C@@H](CO)N3C(=O)c2ccc(F)cc2)c1	15	2
CO[C@@H]1CN(C)C(=O)c2cc(NC(=O)c3cnccn3)ccc2OC[C@H](C)N(C)C[C@@H]1C	22	22
COc1ccc(OC(=O)N(C)C[C@@H]2OCc3cnnn3CCCC(=O)N([C@@H](C)CO)C[C@H]2C)cc1	13	14
C[C@@H]1CN([C@@H](C)CO)C(=O)c2cc(C#CC3CCCCC3)cnc2O[C@@H]1CN(C)Cc1ccncc1	-7	-13
C[C@@H]1CCCCO[C@@H](CN(C)C(=O)Cc2ccccc2)[C@@H](C)CN([C@H](C)CO)C(=O)c2cc(NC(=O)CCCN(C)C)ccc2O1	38	19
Cc1cc(C(=O)Nc2cccc3c2O[C@@H](CN(C)C(=O)Nc2cccc4ccccc24)[C@@H](C)CN([C@@H](C)CO)C3=O)n(C)n1	2	3
C[C@@H]1CN([C@H](C)CO)C(=O)c2cccc(NC(=O)Nc3ccc(C(F)(F)F)cc3)c2O[C@@H]1CN(C)Cc1ccncc1	5	5
CO[C@H]1CN(C)C(=O)c2ccc(NC(=O)C3CCCC3)cc2OC[C@H](C)N(C)C[C@H]1C	-6	-6
COc1cccc(CN2CC3(CN(C)C3)c3c([nH]c4cc(OC)ccc34)[C@H]2CO)c1	12	5
C[C@H]1CN([C@@H](C)CO)C(=O)c2cc(NC(=O)CCCN(C)C)ccc2O[C@@H]1CN(C)C(=O)Nc1ccc2c(c1)OCO2	13	7
COc1ccc(NC(=O)N[C@H]2CC[C@@H](CCn3cc(-c4ccc(OC)cc4)nn3)O[C@H]2CO)cc1	-15	-10
COCC#Cc1ccc([C@@H]2[C@H](CO)N3CCCCN(C(=O)NC4CCCC4)C[C@@H]23)cc1	-17	-10
C[C@@H]1CCCCO[C@@H](CN(C)C(=O)C2CCCCC2)[C@@H](C)CN([C@H](C)CO)C(=O)c2cc(NS(=O)(=O)c3ccccc3)ccc2O1	3	1
Cn1cnc(CCNC(=O)[C@@H]2[C@@H](CO)[C@@H]3Cn4c(cccc4=O)[C@@H]3N2C(=O)Nc2ccccc2)c1	10	17
C[C@H]1CN([C@@H](C)CO)C(=O)c2cccc(NC(=O)C3CCOCC3)c2O[C@@H]1CN(C)S(=O)(=O)c1cn(C)cn1	5	6
CC(C)C#Cc1ccc2c(c1)O[C@@H](CN(C)C(=O)c1ccccn1)[C@H](C)CN([C@@H](C)CO)S2(=O)=O	-5	-8
Cc1noc(C)c1NC(=O)N(C)C[C@@H]1Oc2c(NC(=O)c3ccc(-c4nccs4)cc3)cccc2C(=O)N([C@@H](C)CO)C[C@@H]1C	4	-4
COc1ccc(S(=O)(=O)Nc2ccc3c(c2)C(=O)N([C@@H](C)CO)C[C@H](C)[C@H](CN(C)S(=O)(=O)c2ccc(C)cc2)OCCCC[C@@H](C)O3)cc1	-17	-12
COC(=O)[C@@H]1[C@@H](CO)[C@@H]2Cn3c(ccc(-c4ccccc4)c3=O)[C@@H]2N1CCc1ccccc1	-6	-1
C[C@H](CO)N1C[C@H](C)[C@@H](CN(C)S(=O)(=O)c2ccccc2)Oc2ccc(NC(=O)Nc3cccc4ccccc34)cc2C1=O	16	12
O=C(Cc1ccncc1)N1CC(=O)N2[C@H](CO)[C@H](c3ccc(-c4cccc(F)c4)cc3)[C@@H]2C1	-12	-12
C[C@H]1CN([C@@H](C)CO)C(=O)c2cccc(NS(=O)(=O)c3ccc(F)cc3)c2O[C@H]1CN(C)Cc1ccc(C(=O)O)cc1	26	14
C[C@H]1CN([C@@H](C)CO)C(=O)c2c(c3ccccc3n2C)-c2ccccc2CO[C@@H]1CN(C)Cc1ccc2c(c1)OCO2	u	x
CCC(=O)N[C@@H]1CC[C@H](CC(=O)NCc2ccccc2F)O[C@@H]1CO	11	7
CN(C)CCCNC(=O)C[C@H]1C=C[C@@H](NC(=O)Cc2cccnc2)[C@@H](CO)O1	5	8
COc1ccc(CN(C)C[C@H]2Oc3c(NC(=O)CCCCCC(=O)Nc4ccccc4N)cccc3C(=O)N([C@@H](C)CO)C[C@@H]2C)cc1	u	x
C[C@@H]1CCCCO[C@@H](CN(C)C)[C@@H](C)CN([C@H](C)CO)C(=O)c2cc(NC(=O)NC3CCCCC3)ccc2O1	9	11
Cc1ccc(S(=O)(=O)N[C@@H]2CC[C@@H](CCn3cc(C4CCCC4)nn3)O[C@@H]2CO)cc1	-4	4
COc1cccc(-c2ccc([C@H]3[C@@H](CO)N4C(=O)CN(C(=O)C5CCC5)C[C@@H]34)cc2)c1	-11	-9
CCCC#Cc1ccc([C@@H]2[C@@H](CO)N3C(=O)CN(C(=O)Nc4cc(F)ccc4F)C[C@@H]23)cc1	-30	-29
C[C@@H]1CN([C@@H](C)CO)C(=O)c2cc(NC(=O)CCCN(C)C)ccc2O[C@@H]1CN(C)Cc1ccncc1	0	4
C[C@@H]1CN([C@H](C)CO)C(=O)c2cccc(NC(=O)c3cnccn3)c2O[C@H]1CN(C)C(=O)Nc1cccc2ccccc12	21	15
C/C=C/c1ccc2c(c1)O[C@@H](CN(C)C(=O)Nc1ccccc1)[C@H](C)CN([C@H](C)CO)S2(=O)=O	-13	-10
C[C@@H]1CN([C@@H](C)CO)C(=O)c2cc(Br)cnc2O[C@H]1CN(C)C(=O)c1ccccc1	17	22
Cc1noc(C)c1NC(=O)N(C)C[C@@H]1Oc2c(NS(=O)(=O)c3ccc(Cl)cc3)cccc2C(=O)N([C@@H](C)CO)C[C@@H]1C	20	11
COc1ccc(CN(C)C[C@@H]2OCCCC[C@H](C)Oc3ccc(NC(=O)CCC(F)(F)F)cc3C(=O)N([C@H](C)CO)C[C@@H]2C)cc1	-34	-26
C[C@@H]1CN([C@H](C)CO)C(=O)c2cc(NC(=O)Nc3ccccc3)ccc2O[C@@H](C)CCCCO[C@H]1CN(C)C(=O)C1CCCCC1	-30	-19
C[C@H]1CN([C@@H](C)CO)S(=O)(=O)c2ccc(C#CC3CCCC3)cc2O[C@@H]1CN(C)S(C)(=O)=O	u	x
O=C(C[C@@H]1C=C[C@@H](NC(=O)Cc2cccnc2)[C@H](CO)O1)Nc1ccccc1	15	19
C[C@@H]1CN([C@H](C)CO)C(=O)c2ccccc2-c2ccccc2CO[C@H]1CN(C)S(=O)(=O)c1cn(C)cn1	17	5
C[C@H](CO)N1C[C@H](C)[C@@H](CN(C)C(=O)Nc2cccc3ccccc23)OCCCC[C@H](C)Oc2ccc(NC(=O)Cc3ccccc3)cc2C1=O	21	13
COc1ccc(S(=O)(=O)N(C)C[C@H]2OCCCC[C@@H](C)Oc3ccc(NS(=O)(=O)c4ccccc4)cc3C(=O)N([C@H](C)CO)C[C@H]2C)cc1	-34	-33
O=C(C[C@@H]1CC[C@H]2[C@@H](COC[C@H](O)CN2C(=O)Cc2ccccc2)O1)NC1CCCC1	4	4
CCC(=O)N1CC2(CN(C(=O)Nc3ccc(F)cc3)C2)c2c([nH]c3cc(OC)ccc23)[C@@H]1CO	-1	-3
COc1ccc(CNC(=O)N(C)C[C@@H]2OCc3ccccc3-c3ccccc3C(=O)N([C@@H](C)CO)C[C@H]2C)cc1	11	7
COc1ccc(S(=O)(=O)N[C@H]2C=C[C@H](CC(=O)NCCc3ccncc3)O[C@H]2CO)cc1	1	3
COc1ccc(-c2ccc([C@@H]3[C@@H](CO)N4CCCCN(C(=O)c5ccc(F)cc5)C[C@@H]34)cc2)cc1	1	-7
Cc1noc(C)c1NC(=O)N1C[C@@H](O)COC[C@@H]2O[C@H](CC(=O)NCC3CC3)CC[C@H]21	-8	-6
COc1ccc(NC(=O)Nc2cccc3c2O[C@@H](CN(C)S(=O)(=O)c2ccc(Cl)cc2)[C@H](C)CN([C@@H](C)CO)C3=O)cc1	2	15
O=C(Cc1ccccc1)N1CC(=O)N2[C@H](CO)[C@@H](c3ccc(C#Cc4ccccc4)cc3)[C@@H]2C1	-22	-19
CC(=O)N1[C@H](CO)[C@@H](c2ccccc2)[C@@H]1CN(C)C(=O)c1ccccc1F	22	13
CO[C@@H]1CC[C@@H]2CCN(C)C(=O)CCCN(C)C(=O)c3cc(C#N)ccc3OC[C@H]1O2	13	1
Cc1ccc(-c2ccc3c(c2)O[C@@H](CN(C)C(=O)CN(C)C)[C@@H](C)CN([C@H](C)CO)S3(=O)=O)cc1	u	x
COc1ccccc1C(=O)Nc1ccc2c(c1)C(=O)N(C)C[C@H](OC)[C@@H](C)CN(C(C)=O)[C@H](C)CO2	8	17
COc1ccccc1-c1ccccc1[C@H]1[C@@H](C#N)N(C(=O)C2CCOCC2)[C@H]1CO	11	8
Cc1ccc(S(=O)(=O)N(C)C[C@H]2OCCCC[C@@H](C)Oc3ccc(NC(=O)NC4CCCCC4)cc3C(=O)N([C@H](C)CO)C[C@@H]2C)cc1	-2	-3
C[C@H]1CN([C@@H](C)CO)C(=O)c2cc(NC(=O)Cn3cnnn3)ccc2O[C@H]1CN(C)C(=O)Nc1ccccc1	11	2
Cc1ccc(S(=O)(=O)Nc2ccc3c(c2)C(=O)N([C@H](C)CO)C[C@@H](C)[C@H](CN(C)C(=O)C2CCCCC2)OCCCC[C@H](C)O3)cc1	u	x
